# GALR2 agonist – agonists of human galanin receptor 2 (GALR2); O43603; GALR2-expressing cells, agonist activation read-out; activation, %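 (tested at 5 µM)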; 140,000 compounds, 0.48% hits; AID 803;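 active = above mean plus 3 SD of all compounds, about 5% in these data, not always enough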;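 note: 0% = vehicle buffer wells and 100% = reference agonist at full effect; tested in CHO reporter cells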
# Target sequence (O43603 whole entry, looked up): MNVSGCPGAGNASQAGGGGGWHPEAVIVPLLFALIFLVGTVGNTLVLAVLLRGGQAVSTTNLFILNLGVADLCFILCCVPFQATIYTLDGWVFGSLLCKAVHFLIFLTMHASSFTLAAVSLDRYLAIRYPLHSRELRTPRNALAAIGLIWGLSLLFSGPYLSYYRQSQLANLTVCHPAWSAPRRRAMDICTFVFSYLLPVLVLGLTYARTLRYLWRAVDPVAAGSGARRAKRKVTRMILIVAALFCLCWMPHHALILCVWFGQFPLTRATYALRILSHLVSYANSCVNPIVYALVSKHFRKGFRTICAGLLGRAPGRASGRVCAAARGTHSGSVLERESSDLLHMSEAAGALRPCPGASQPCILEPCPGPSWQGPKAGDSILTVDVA
# INS promoter inh – TRM-6 insulin promoter activity inhibition. TRM-6 cells (human fetal islet line), insulin promoter-eGFP reporter, imaging; reporter expression induced with tamoxifen. inhibition, % at 2 µM. 130,000 compounds, 0.9% hits;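 active = inhibition above the mean plus 3 SD, with well images judged a real hit on visual review, cut at about 60% in these data, passing the limit was not always enough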
# RGS16-Gao – modulates binding between human RGS16 and Galphao; O15492+P09471; 220,000 compounds, 0.38% hits; bead-based flow cytometry RGS16-Galphao binding, fluorescence; actives lie on both sides; binding response (% of control), % at 10 µM;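 active = below 25% or above 175%, edge rows of some plates excepted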;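 note: Galphao activated by GDP with aluminum fluoride before binding; 100% = wells without compound and 0% = beads without RGS; some results beyond the cut were filed as inactive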
# Target sequence (O15492 whole entry, looked up): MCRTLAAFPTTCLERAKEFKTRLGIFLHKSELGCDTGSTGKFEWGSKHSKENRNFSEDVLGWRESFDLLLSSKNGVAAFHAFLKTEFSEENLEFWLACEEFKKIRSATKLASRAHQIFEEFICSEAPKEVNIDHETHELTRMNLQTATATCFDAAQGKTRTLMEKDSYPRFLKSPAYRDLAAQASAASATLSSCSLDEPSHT
# Target sequence (P09471 whole entry, looked up): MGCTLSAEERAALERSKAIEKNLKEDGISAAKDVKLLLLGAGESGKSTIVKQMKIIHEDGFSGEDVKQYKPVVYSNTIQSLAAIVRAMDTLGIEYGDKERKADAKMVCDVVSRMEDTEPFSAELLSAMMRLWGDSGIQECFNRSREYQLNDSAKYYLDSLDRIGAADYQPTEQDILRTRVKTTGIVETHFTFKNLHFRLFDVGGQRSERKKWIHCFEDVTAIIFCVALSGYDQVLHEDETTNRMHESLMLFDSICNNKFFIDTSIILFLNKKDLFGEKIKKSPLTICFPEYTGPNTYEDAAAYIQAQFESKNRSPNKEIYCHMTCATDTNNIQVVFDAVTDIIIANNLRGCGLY
# PKD1 kinase inh – PKD1 (human) kinase inhibition | Q15139 | PKD1 kinase fluorescence polarization assay | inhibition, %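 (about 10 µM by stock and volumes)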 | 200,000 compounds, 0.056% hits;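 active = inhibition of 50% or more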;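 note: controls were vehicle for no effect and a reference inhibitor for full effect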
# HSV augment – HSV replication enhancement. maximum fold increase. 220,000 compounds, 0.005% hits. HSV replication augmentation in cells, fold increase;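 active = peak rise of 1.5-fold or more in the series; tested in PC3 cells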;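 note: first round at 10 µM; read as green reporter fluorescence; hits show the peak of a series up to 25 µM; 1 = signal of infected wells without compound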
# INS promoter inh cell count – recorded beside INS promoter inh, whose call it bears; normalized cell count, %; measured here: cell count, toxicity; reference of the scale not given here;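 cells exposed to compound for 48 h; stained nuclei by imaging scaled within each plate; lower means fewer cells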
# HSV augment primary fold – recorded beside HSV augment, whose call it bears; fold increase; compound at 10 µM; measured here: primary screen fold increase 10 uM; tested in PC3 cells;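 GFP signal in the first replicate; 1 = infected wells without compound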
# The depositor's hits bear a star; i = inactive; . = no result given. Hits appear at their usual frequency; any-hit rate near 1.3%.
SMILES,GALR2 agonist,INS promoter inh,INS promoter inh cell count,RGS16-Gao,PKD1 kinase inh,HSV augment,HSV augment primary fold
O=C(NC1=NCCS1)c1ccccc1OCc1ccc(F)cc1,.,-30,65,111,-5,i,1.1
O=C(NCCN1C(=O)CSC1=O)c1ccccc1,-1.3,.,.,100,0,i,0.85
Cc1cc(NC(=O)CSc2nc3sc4c(c3c(=O)n2C)CCCC4)no1,-1.8,.,.,102,-11,.,.
c1ccc(-c2nnc(Cn3c4ccccc4c4nc5ccccc5nc43)o2)cc1,-2.2,-48,97,.,-1,.,.
CC(=Nc1ccccc1)Nc1ccccc1,-0.9,.,.,.,-6,i,0.95
O=C(NNC(=O)C1CC1c1ccccc1)c1ccccc1[N+](=O)[O-] (centres undefined),-1.7,-106,81,94,-4,i,0.88
O=C(NCC1(c2ccccc2)CCCC1)C(=O)NCC1(c2ccccc2)CCCC1,-0.2,-324,50,114,-6,i,0.86
COc1ccccc1Nc1nc(N)nc(CSC(=S)N2CCN(c3ccccc3)CC2)n1,.,8,112,100,7,i,0.92
Cc1ccsc1/C=C(\C#N)C(=O)NC1CCS(=O)(=O)C1 (centres undefined),.,-75,79,106,3,i,0.92
Cc1ccc(NC(=S)NNc2ccc([N+](=O)[O-])cc2S(=O)(=O)Nc2ccccc2C(=O)O)cc1C,0.6,14,116,106,-2,i,0.95
Cc1ccccc1OCC(=O)N1CCCc2ccccc21,0.4,20,166,86,6,i,1
CC(OCCN1CCCC1)(c1ccc(F)cc1)c1ccc(F)cc1,0.1,-31,126,95,9,i,0.87
Cc1cc(C)n(/N=C/c2ccc(O)cc2)c(=O)c1C#N,.,.,.,104,-1,i,0.95
COc1ccccc1C(=O)N1CCN(c2cccc(C(F)(F)F)c2)CC1,0.4,.,.,96,-4,.,.
CCc1cccc(NC(=O)CCSCCC(=O)Nc2cccc(CC)c2)c1,-1.8,-90,111,132,0,i,1.1
COc1ccc(CNC(=O)C2CC(=O)N(c3ccc(OCC(=O)N4CCCCC4)cc3)C2)cc1 (centres undefined),-1.8,32,100,101,-1,i,0.84
COc1ccc(C(=O)Nc2ccc(C(=O)Nc3nccs3)cc2)cc1[N+](=O)[O-],-0.4,.,.,106,2,i,0.89
COc1cccc(CN(C)C(=O)c2cccnc2SC)c1OC,.,.,.,99,-2,i,0.99
COc1cc(CNCCO)cc(Br)c1OCc1ccccc1,.,-50,46,80,-3,i,0.82
CC(C)(C)NC(=O)C(=O)NNC(=O)C12CC3CC(CC(C3)C1)C2,-0.9,.,.,101,8,.,.
Cc1cc(N=Cc2c(O)n(-c3ccc(C)c(C)c3)c(=O)c3ccccc23)no1,-1.6,.,.,94,-4,i,0.91
CCN(CC)Cc1cc(C(=O)O)c(-c2ccccc2)o1,.,.,.,97,.,i,0.96
CCc1ccc(OCCCC(=O)O)c(Br)c1,-5.5,-9,61,102,-6,i,0.87
COC(=O)c1ccc(C(=O)N(CCN(C)C)c2nc3c(Cl)cccc3s2)cc1,.,29,58,105,-3,i,0.97
O=C(Nc1ccccc1C(=O)NCc1ccco1)NC1CCCCC1,-1.8,10,49,103,-5,i,0.82
# More entries:
SMILES,GALR2 agonist,INS promoter inh,INS promoter inh cell count,RGS16-Gao,PKD1 kinase inh,HSV augment,HSV augment primary fold
Cc1ccc(S(=O)(=O)Oc2ccc(/C=N/NC(=O)c3nn(C)cc3[N+](=O)[O-])cc2)cc1,0.6,.,.,103,-8,i,0.84
CC(C)(C)C(=O)CC(=O)Nc1ccc(Cl)c(N)c1,-0.8,0,106,100,-1,i,1.3
CCSc1nnc(NC(=O)CN(C)S(=O)(=O)c2ccc(F)cc2)s1,-1.7,.,.,92,-5,.,.
CCOC(=O)C(NC(=O)c1cccnc1)(Nc1cccc(C)n1)C(F)(F)F (centres undefined),0.1,37,86,102,-2,i,0.85
COc1ccccc1N/N=C/c1c(CO)cnc(C)c1O,-2.8,-5,145,103,1,i,0.97
CC(Cc1ccccc1)NC(=O)/C=C/c1ccc([N+](=O)[O-])cc1 (centres undefined),0.1,15,139,101,0,i,0.98
Cc1ccc(-n2ccc(=O)c(-c3ccnc(SCc4cccc(Cl)c4)n3)n2)cc1,-2.1,-13,74,103,-3,i,0.97
C=CCCCCCCCCC(=O)NNC1CC(=O)N(c2ccccc2)C1=O (centres undefined),.,.,.,85,.,i,1.1
O=C1N/C(=N\N=C\c2cccs2)SC1Cc1ccc(Cl)cc1 (centres undefined),1.1,.,.,90,-5,i,0.96
CC(C)OCCCNC(=O)c1ccccc1Oc1ccccc1,-1.1,-346,84,104,-4,i,0.97
COc1cccc(/C=N/NC(=O)Cn2nc([N+](=O)[O-])cc2C)c1,.,.,.,100,.,i,1
Cc1cc(C(=O)COc2ccc(Cl)cc2Br)c(C)n1C,.,27,133,98,-1,i,1.1
O=C(N/N=C/c1c(O)n(-c2ccccc2Cl)c(=O)c2ccccc12)C1COc2ccccc2O1 (centres undefined),-1.6,-184,133,101,0,i,1
Cc1cc(N2CCN(C)CC2)nc2ccc(NC(=S)N3CCCCCC3)cc12,.,.,.,100,0,i,0.84
Cc1c(NC(=O)CCCN2C(=O)c3cccc4cccc(c34)C2=O)c(=O)n(-c2ccccc2)n1C,.,-2,75,102,3,i,1
CCCc1cc(-c2[nH]ncc2-c2ccc3c(c2)OCCCO3)c(O)cc1O,-2.4,33,59,106,2,i,0.84
CCOc1cc(/C=C/C(=O)O)ccc1OCCO,.,.,.,73,-3,i,1
Cc1ccc(O)c(C(CC(=O)NC2CCCCC2)c2ccccc2)c1 (centres undefined),.,.,.,102,-3,i,1
Cc1n[nH]c(=O)nc1NCc1ccccc1Cl,-1.6,-47,108,95,3,i,0.99
CCC(=O)NCCc1cc2cc(C)c(C)cc2[nH]c1=O,0.6,18,172,113,-13,.,.
C=CCN(CC(=O)O)S(=O)(=O)c1ccccc1C(F)(F)F,.,.,.,93,-6,i,0.88
Cc1ccc2[nH]c(=O)c(CN(Cc3cccs3)Cc3nnnn3CC3CCCO3)cc2c1 (centres undefined),2.9,.,.,97,-4,i,0.95
Cc1nnc(SCCn2c(N3CCC(C)CC3)nc3c2c(=O)n(C)c(=O)n3C)s1,-0.6,-41,113,.,-3,i,0.96
CCN(CC)S(=O)(=O)c1cccc(C(=O)Nc2ccc(Cl)cn2)c1,-0.7,.,.,103,-8,i,0.93
CC1=NN(C(=O)c2cccnc2)C(O)(C(F)(F)F)C1 (centres undefined),.,12,97,108,-7,i,1
# Following part:
SMILES,GALR2 agonist,INS promoter inh,INS promoter inh cell count,RGS16-Gao,PKD1 kinase inh,HSV augment,HSV augment primary fold
CCCC(=O)NCc1cc(-c2nn(C)c(=O)c3ccccc23)ccc1OC,.,47,119,107,-1,i,1.2
Cc1cc(=O)oc2cc(NC(=O)C3COc4ccccc4O3)ccc12 (centres undefined),0.9,.,.,141,-3,i,0.9
Cc1ccc(C(=O)Nc2ccccc2C(=O)O)cc1NC(=O)COc1c(C)cccc1C,.,.,.,103,-1,i,0.9
COc1ccc(NC(=O)C2CCCCN2S(=O)(=O)c2ccc(F)cc2)cc1 (centres undefined),-1.6,.,.,94,-3,i,0.95
Cc1ccc(C(=O)N2CCN3C(=O)c4ccccc4C23c2ccc(Cl)cc2)cc1 (centres undefined),-2.7,-29,175,103,-6,i,0.99
CC(=O)Nc1ccc(-c2nnn(CC(=O)c3ccc(F)cc3)n2)cc1Cl,.,.,.,103,.,i,0.84
Nc1c(NC(=O)CC[n+]2ccccc2)cccc1[N+](=O)[O-],-1.8,-28,101,153,-1,i,1
CC(C)N1CCc2c(sc(NC(=O)c3cc4cc([N+](=O)[O-])ccc4s3)c2C(N)=O)C1,.,-368,99,97,-5,i,1.2
O=C(Nc1ccccc1)c1snc2c(=O)[nH]cnc12,.,.,.,118,0,i,1
CCOC(=O)c1c(N)sc(C(=O)N(C)C)c1CN1CCOCC1,-3.4,23,110,101,-4,i,1.1
CCNC(=O)CC1SC(=Nc2ccccc2C)N(C)C1=O (centres undefined),-1.1,8,111,111,-2,i,1
CCN(CC)C(=O)Oc1ccc2c(=O)c(-c3ccc(OC)cc3)coc2c1,-1.5,-21,163,100,10,i,0.73
CCOC(=O)CSc1ccc(-c2nc3ccccc3[nH]2)cn1,-3.3,57,72,107,-6,i,0.91
COc1ccccc1N1CCN(C(=O)C(OC(C)=O)c2ccccc2)CC1 (centres undefined),0.5,33,116,110,-9,i,0.88
CCOC(=O)/C(=C/c1ccc(OC)cc1)NC(=O)c1ccco1,-1.1,.,.,107,-1,i,1
COc1ccc(N2CC(C(=O)Nc3nnc(SCc4ccccn4)s3)CC2=O)cc1 (centres undefined),-0.8,.,.,99,-11,i,1.2
Cc1cccc(-c2noc(CCc3ccccc3)n2)c1,-2.3,.,.,105,-10,i,0.82
Cn1c(SCC(=O)N2c3ccccc3Sc3ccccc32)nc2ccccc21,-0.3,.,.,101,7,i,1.1
Cc1cc(-c2ccccc2C(=O)NCc2ccccc2)on1,-0.9,-56,91,98,-2,i,0.87
COc1ccc(/C=C/C(=O)N(CC(C)C)CC(C)C)cc1Br,-0.7,-4,109,102,3,i,0.94
CCOC(=O)C(NC(=O)c1ccc(OC)cc1)(N1CCCC1=O)C(F)(F)F (centres undefined),-1.6,44,105,41,21,i,0.93
Cc1csc(NC(=O)c2cncc(Br)c2)n1,.,.,.,109,2,i,1
Fc1ccc(CSc2ncnc3scc(-c4ccccc4)c23)cc1,-0.2,.,.,101,-1,i,1.1
O=C(Cc1ccccc1)NNc1ccc2ccccc2c1,.,.,.,94,-7,i,0.99
CCCCC(O)(CCCC)C(=O)N/N=C(\C)c1ccc(Cl)cc1,.,.,.,104,.,i,1
# Other results.
SMILES,GALR2 agonist,INS promoter inh,INS promoter inh cell count,RGS16-Gao,PKD1 kinase inh,HSV augment,HSV augment primary fold
COc1ccc(CNC(=O)CSc2nc3cccnc3s2)cc1,.,.,.,98,.,i,0.94
COc1cc(/C=N/NC(=S)NCc2ccco2)cc(OC)c1OC,-0.8,-31,70,104,8,i,1
CCN(C(=O)c1coc(=O)c2ccccc12)c1cc(OC)ccc1OC,-1.1,.,.,102,-1,i,0.95
O=C(c1cccc(C(=O)N(c2ccccn2)C2CCCCC2)c1)N(c1ccccn1)C1CCCCC1,.,.,.,97,-3,i,1.1
Cc1cc(C)n(CC(=O)n2c(C)c(C)c3ccccc32)n1,-0.5,12,105,104,-6,i,0.93
Cc1ccc(NC2Nc3cc(C)nn3S2)c(C)c1 (centres undefined),.,-41,105,96,-1,i,0.94
COc1ccc(C(=O)N2CCC(c3ccccc3)CC2)c(OC)c1OC,.,-6,171,102,-3,i,0.96
CCCCn1c2nc3ccccc3nc2c2c(=O)n(CCC)cnc21,-2.0,34,129,94,-1,i,0.91
CCN(CC)CCN1C(=O)C(=O)/C(=C(/O)c2c(C)[nH]c(C(=O)OC)c2C)C1c1ccco1 (centres undefined),-2.5,.,.,101,-7,i,0.85
O=C(O)CC(CC(=O)Nc1ccc(C(=O)O)cc1)c1ccccc1 (centres undefined),.,.,.,102,.,i,1
CCC(=O)NC(c1ccccc1Cl)c1c(O)ccc2ccccc12 (centres undefined),-2.2,.,.,101,-1,i,0.99
Nn1c(SCc2nc3ccccc3[nH]2)nnc1-c1cccnc1,-1.8,-14,86,100,-4,i,0.92
COc1ccc(C(=O)Cc2ccc(OC)c(OC)c2)cc1,-1.7,-6,51,.,1,i,0.7
COC(=O)c1cnn(-c2ccccc2)c1C(OC)OC,.,.,.,102,.,i,0.96

# Screens deposited in PubChem BioAssay by several laboratories.
